# Screening data deposited in PubChem by several laboratories.
# PKD1 inh: PKD1 (human) kinase inhibition; Q15139; PKD1 kinase fluorescence polarization assay; inhibition, %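 (about 10 µM by stock and volumes)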; actives 0.056% (n = 200,000); AID 797;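 active = inhibition of 50% or more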;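 note: controls were vehicle for no effect and a reference inhibitor for full effect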
# GALR2 agonist: GALR2 (human) receptor agonism; O43603; GALR2-expressing cells, agonist activation read-out; activation, %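 (tested at 5 µM)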; actives 0.48% (n = 140,000); AID 803;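 active = above mean plus 3 SD of all compounds, about 5% in these data, not always enough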;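 note: 0% = vehicle buffer wells and 100% = reference agonist at full effect; tested in CHO reporter cells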
# Target sequence (O43603 whole entry, looked up): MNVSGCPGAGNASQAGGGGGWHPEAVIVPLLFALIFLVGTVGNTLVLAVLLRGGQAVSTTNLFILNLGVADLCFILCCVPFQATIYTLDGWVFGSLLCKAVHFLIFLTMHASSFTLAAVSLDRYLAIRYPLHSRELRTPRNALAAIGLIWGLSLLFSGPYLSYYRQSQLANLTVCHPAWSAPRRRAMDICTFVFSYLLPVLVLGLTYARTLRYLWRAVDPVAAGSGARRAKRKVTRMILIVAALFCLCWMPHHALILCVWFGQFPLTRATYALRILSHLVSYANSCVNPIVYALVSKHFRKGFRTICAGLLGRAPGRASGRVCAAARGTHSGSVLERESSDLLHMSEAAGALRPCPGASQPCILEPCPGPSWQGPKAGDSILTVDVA
# RGS16-Gao: modulates binding between human RGS16 and Galphao. O15492+P09471. bead-based flow cytometry RGS16-Galphao binding, fluorescence; actives lie on both sides. binding response (% of control), % at 10 µM. actives 0.38% (n = 220,000). AID 1441;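 active = below 25% or above 175%, edge rows of some plates excepted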;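 note: Galphao activated by GDP with aluminum fluoride before binding; 100% = wells without compound and 0% = beads without RGS; some results beyond the cut were filed as inactive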
# Target sequence (O15492 whole entry, looked up): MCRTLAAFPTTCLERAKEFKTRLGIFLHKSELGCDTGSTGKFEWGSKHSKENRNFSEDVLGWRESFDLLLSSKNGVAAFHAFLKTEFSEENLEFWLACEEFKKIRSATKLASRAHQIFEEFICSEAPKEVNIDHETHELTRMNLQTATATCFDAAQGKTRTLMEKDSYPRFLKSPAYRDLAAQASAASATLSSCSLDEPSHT
# Target sequence (P09471 whole entry, looked up): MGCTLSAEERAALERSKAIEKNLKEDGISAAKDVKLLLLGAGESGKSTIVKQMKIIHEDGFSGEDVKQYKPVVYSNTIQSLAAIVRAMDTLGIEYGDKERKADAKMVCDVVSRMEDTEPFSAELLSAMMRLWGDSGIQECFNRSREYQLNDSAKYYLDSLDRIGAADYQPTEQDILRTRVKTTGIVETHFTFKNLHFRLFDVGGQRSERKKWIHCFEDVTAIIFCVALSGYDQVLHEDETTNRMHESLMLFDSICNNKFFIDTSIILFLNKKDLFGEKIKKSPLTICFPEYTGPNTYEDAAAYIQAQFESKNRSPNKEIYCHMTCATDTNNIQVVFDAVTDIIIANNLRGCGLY
# HSV replic up: HSV replication enhancement. actives 0.005% (n = 220,000). maximum fold increase. HSV replication augmentation in cells, fold increase. AID 1956;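 active = peak rise of 1.5-fold or more in the series; tested in PC3 cells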;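 note: first round at 10 µM; read as green reporter fluorescence; hits show the peak of a series up to 25 µM; 1 = signal of infected wells without compound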
# Insulin prom inh: TRM-6 insulin promoter activity inhibition; TRM-6 cells (human fetal islet line), insulin promoter-eGFP reporter, imaging; reporter expression induced with tamoxifen; inhibition, % at 2 µM; actives 0.9% (n = 130,000); AID 1273;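 active = inhibition above the mean plus 3 SD, with well images judged a real hit on visual review, cut at about 60% in these data, passing the limit was not always enough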
# Insulin prom inh cell count: second read-out of Insulin prom inh, no call of its own (marks repeat the call); normalized cell count, %; measured here: cell count, toxicity; reference of the scale not given here;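 cells exposed to compound for 48 h; stained nuclei by imaging scaled within each plate; lower means fewer cells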
# HSV replic up primary fold: recorded beside HSV replic up, whose call it bears; fold increase; compound at 10 µM; measured here: primary screen fold increase 10 uM; tested in PC3 cells;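 GFP signal in the first replicate; 1 = infected wells without compound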
# Starred values were filed as active, the others as inactive; i = inactive; nt = no result given. Not a hit list; any-hit rate near 1.3%.
# Order of values: HSV replic up	Insulin prom inh cell count	HSV replic up primary fold	PKD1 inh	RGS16-Gao	Insulin prom inh	GALR2 agonist
> O=C(O)c1cccnc1Br
    i	nt	0.98	2	100	nt	nt
> CCc1cccc(C)c1NC(=O)CSc1nc2ccccc2n1CC(=O)N(C)C
    i	nt	1	-1	91	nt	-1.2
> CC(C)N1CCN(Cc2ccc(-c3ccccc3Cl)o2)CC1CCO (stereo not given)
    i	nt	1.1	-8	99	nt	nt
> O=C(CN1CCN(S(=O)(=O)c2ccccc2)CC1)NC(=O)NCc1ccccc1
    i	104	0.98	5	94	-23	-3.3
> O=C1C(=O)N(c2ccccc2)c2ccccc21
    i	116	1.3	-1	91	21	-0.4
> CC1CCN(C(=O)CNC(=O)c2ccc(Cl)cc2Cl)CC1
    i	234	1.1	0	99	1	-1.2
> COC(=O)N/N=C/c1cc([N+](=O)[O-])cc(Br)c1O
    i	nt	1.1	-5	106	nt	-1.7
> CC1CCCC(C)N1C(=O)c1cccc2c1-c1ccccc1/C2=N/O (stereo not given)
    i	86	0.98	5	109	31	-0.4
> Cn1nc(C(F)(F)F)c(CO)c1Sc1ccc(F)cc1
    i	nt	0.83	3	101	nt	nt
> Cc1cc(C)cc(NC(=O)N2CCN(S(C)(=O)=O)CC2)c1
    i	73	1.1	2	103	35	nt
> Cc1ccc(SCc2ccc(C(=O)Nc3ccccc3C(=O)NC(C)C)cc2)cc1
    i	130	0.92	3	97	-16	-1.4
> CCCc1nc2oc3c(=O)[nH]cnc3c2c2c1COC(C)(C)C2
    i	nt	0.98	nt	110	nt	nt
> O=C(NC1CC1)C(=O)c1c(-c2ccccc2)[nH]c2ccccc12
    i	102	0.91	-3	106	-27	-0.1
> O=C(NCCn1ccc2ccccc21)c1ccc(S(=O)(=O)N2CCCCC2)cc1
    i	nt	0.95	2	100	nt	-0.1
> Cc1c(C(=O)NCc2ccc3c(c2)OCO3)cccc1[N+](=O)[O-]
    i	147	0.99	18	103	40	-0.3
> CC(NC(=O)CCc1nnc(CCCc2ccccc2)o1)c1ccccc1 (stereo not given)
    i	nt	0.93	6	100	nt	nt
> Cc1ccc(S(=O)(=O)NC(=O)NC(=O)N(C)S(=O)(=O)c2ccc(C)cc2)cc1
    i	53	0.98	2	67	-73	nt
> O=C(CSC1=NCCS1)Nc1ccnc2ccccc12
    nt	82	nt	-3	153	48	-1.8
> O=C(Nc1cc(C(F)(F)F)ccc1Cl)C(Sc1nnc(-c2cccs2)o1)c1ccccc1 (stereo not given)
    i	120	1.1	4	101	-118	-0.8
> CCC(=O)NCCCCCCNC(=O)CC
    i	147	0.94	0	103	26	-2.1

# Fetched one by one from the list above:
# Order of values: HSV replic up	Insulin prom inh cell count	HSV replic up primary fold	PKD1 inh	RGS16-Gao	Insulin prom inh	GALR2 agonist
> O=C(CSC1=NCCS1)Nc1ccnc2ccccc12
    nt	82	nt	-3	153	48	-1.8
> Cc1ccc(S(=O)(=O)NC(=O)NC(=O)N(C)S(=O)(=O)c2ccc(C)cc2)cc1
    i	53	0.98	2	67	-73	nt
> Cc1cc(C)cc(NC(=O)N2CCN(S(C)(=O)=O)CC2)c1
    i	73	1.1	2	103	35	nt
> CC(C)N1CCN(Cc2ccc(-c3ccccc3Cl)o2)CC1CCO (stereo not given)
    i	nt	1.1	-8	99	nt	nt
> CC(NC(=O)CCc1nnc(CCCc2ccccc2)o1)c1ccccc1 (stereo not given)
    i	nt	0.93	6	100	nt	nt

# Going on with the list.
# Order of values: HSV replic up	Insulin prom inh cell count	HSV replic up primary fold	PKD1 inh	RGS16-Gao	Insulin prom inh	GALR2 agonist
> CCOC(=O)C(C)Sc1nnc(CNC(=O)c2ccc(OC)cc2)n1C1CCCCC1 (stereo not given)
    i	129	0.97	-2	99	14	-1.6
> Cc1ccc(Nc2nc3c([nH]2)c(=O)[nH]c(=O)n3C)cc1
    nt	78	nt	2	95	36	-2.8
> CCOC(=O)c1cccc(NS(=O)(=O)Cc2ccccc2)c1
    i	123	0.91	-7	100	33	nt
> COc1cccc(NC(=O)CSc2nc(C)cs2)c1
    i	101	0.94	-6	97	38	-2.4
> CCOc1ccccc1NC(=S)Nc1ncccc1C
    i	nt	0.88	-9	96	nt	0.6
> CCC(c1nnc(SCC(=O)Nc2nnc(-c3ccccc3)o2)n1Cc1ccccc1)N(C)C (stereo not given)
    i	nt	1.1	-19	94	nt	0.5
> Cc1ccc(NC(=O)c2ccc(Cl)c(N3C(=O)C=CC3=O)c2)cc1
    i	124	0.82	9	97	0	-1.8
> CC1=C(C(=O)OCc2ccc3c(c2)OCO3)C(c2ccc(F)cc2)NC(=O)N1 (stereo not given)
    i	142	0.5	-9	127	59	-0.8
> Cc1ccc(-c2nnc(Nc3ccc4c(c3)OCO4)c3ccccc23)cc1S(N)(=O)=O
    i	92	0.82	-6	123	0	-1.1
> CCN(CC)c1ccc(/C=N/NC(=O)Cc2ccc(OC)c(OC)c2)cc1
    i	nt	0.83	nt	97	nt	nt
> O=C(O)c1ccc(Nc2cc(Cl)c3nonc3c2[N+](=O)[O-])cc1
    i	150	0.89	3	96	18	nt
> C/C=C\C=C/C(=O)Nc1cccc(C2=NOC3(C2)C[C@H](C(N)=O)N(C(=O)Cc2ccc([N+](=O)[O-])cc2)C3)c1 (stereo not given in full)
    i	nt	0.77	nt	91	nt	nt
> CC(=O)c1cccc(NC(=O)c2c(F)c(F)c(F)c(F)c2F)c1
    i	65	0.73	4	101	-42	-1.0
> CCS(=O)(=O)N1CCN(c2ccccc2F)CC1
    i	185	0.91	-17	100	-11	-0.5
> COC(=O)CC(N)c1ccc(Br)cc1 (stereo not given)
    i	nt	0.94	-4	101	nt	nt
> O=C(CNC(=O)/C(=C/c1ccccc1)NC(=O)c1ccc(Br)cc1)OCc1ccccc1
    i	nt	1.1	4	78	nt	-1.1
> O=C(N1CCOCC1)N1CCCN(C(=O)N2CCOCC2)CC1
    i	72	0.9	8	97	-38	-0.6
> S=C(NCCN1CCOCC1)Nc1cccc2ccccc12
    i	79	0.95	-11	93	25	0.1
> COc1ccc(-n2c(CNc3ccc(C)cc3)nnc2SCC(=O)Nc2nc(-c3ccccc3)cs2)cc1
    i	nt	0.7	4	99	nt	-2.8
> O=C(O)CCCC(=O)N1CC(=O)Nc2ccccc21
    i	79	0.86	6	102	-55	-1.0
> Cc1cccc(-c2cc3nc(C)c(C)c(NCCCn4ccnc4)n3n2)c1
    i	nt	0.8	nt	84	nt	nt
> O=C(CNS(=O)(=O)c1c(Cl)cccc1Cl)OCC(=O)N1CCN(c2ccccc2)CC1
    i	106	0.97	-2	112	-41	-1.0
> O=C(O)c1ccccc1-n1cnnn1
    i	nt	1	nt	99	nt	nt
> Cc1nc2sc(C(c3cccc(F)c3)N3CCCCC3)c(O)n2n1 (stereo not given)
    i	61	0.93	2	94	19	-0.9
> O=C(NCc1ccc(N2CCCC2=O)cc1)Nc1cccc(Cl)c1
    i	90	1	-8	28	60	-1.9
> COc1ccc(Cl)cc1NC(=O)C12CCC(C)(C(=O)O1)C2(C)C (stereo not given)
    i	178	1.1	-17	107	-29	-2.6
> O=C(O)c1ccc(/C=N/N2CCN(Cc3ccccc3)CC2)cc1
    i	59	0.9	-3	109	-60	-0.1
> CS(=O)(=O)N(CCc1ccccc1)CC(=O)N1CCCCC1
    i	101	0.96	-1	115	33	0.3
> O=C(Nc1cc2c(cc1Cl)OCCCO2)c1ccco1
    i	115	0.87	-17	107	-46	-0.2
> Cc1cc(C)c(S(=O)(=O)Nc2ccccc2-c2ccccc2)c(C)c1
    nt	nt	nt	-3	100	nt	-0.3
> Fc1ccc(C2=Nn3c(nnc3-c3ccco3)SC2)cc1
    i	nt	1.1	nt	97	nt	nt
> N#CCCN1CCN(C(=O)c2c(N)no[n+]2[O-])CC1
    i	140	0.89	-3	106	17	nt
> CCOC(=O)Nc1sc2c(c1C(N)=O)CCC(C)C2 (stereo not given)
    i	nt	0.88	-8	97	nt	nt
> COc1ccc(CNC(=O)COC(=O)C2CC3C=CC2C3)cc1 (stereo not given)
    i	nt	1.1	-9	77	nt	-0.7
> Cc1ccc(NC(=O)C2CCN(c3cnccn3)CC2)cc1C
    i	120	1	11	112	27	nt
> COc1ccc(N2CC(NC(=O)NCC(C)C)CC2=O)cc1 (stereo not given)
    i	84	1	-12	104	-60	-0.8
> O=C(NCCC1=CCCCC1)C1CCN(S(=O)(=O)c2cccc3nonc23)CC1
    i	136	1.1	3	96	17	0.8
> CCCCC(=O)Nc1nc2ccc3nc(C)sc3c2s1
    i	nt	0.78	9	79	nt	-1.4
> Cc1ccc(N=C/C(C(=O)C(F)(F)F)=C(\O)c2ccco2)cc1Cl
    i	106	1	5	103	-3	-0.4
> O=S(=O)(/N=C(/Nc1ccc(Cl)cc1Cl)c1ccccc1)c1cccs1
    i	nt	1	1	103	nt	nt
> Cc1c(Br)c([N+](=O)[O-])nn1CCCC(=O)Nc1c(C)n(C)n(-c2ccccc2)c1=O
    i	96	0.94	0	100	17	nt
> O=C(COc1ccccc1)N/N=C/c1ccc([N+](=O)[O-])o1
    i	nt	0.91	1	111	nt	-0.8
> O=C(NCc1ccccn1)c1ccc(Cl)c(S(=O)(=O)Nc2ccccc2C(=O)NCc2ccccn2)c1
    i	nt	1.1	-3	94	nt	0.3
> CC(=O)CCc1ccc(OCC(O)CNC2CCCc3ccccc32)cc1 (stereo not given)
    i	76	0.96	-2	98	-27	-1.7
> Cc1ccc(OCc2nc(-c3cccnc3)no2)cc1C
    i	nt	0.99	-2	106	nt	nt
> CCOc1ccc(OCC)c(NC(=O)CSCCc2ccccn2)c1
    i	nt	0.94	0	107	nt	nt
> CNC(=O)c1cc2c(s1)CCCCCC2
    i	79	1.2	-6	96	48	-1.0
> CCOC(=O)c1ccc(NC(=O)CCc2c(C)nc3ncnn3c2C)cc1
    i	128	0.74	-1	98	23	-2.3
> CCCc1nnc(NC(=O)CN2C(=O)C3C4C=CC(C4)C3C2=O)s1 (stereo not given)
    i	95	0.84	5	87	-25	0.1
> C/C(=N\NC(=O)CCc1c[nH]c2ccccc12)c1ccc([N+](=O)[O-])cc1
    i	121	0.88	-2	110	-17	1.3
> CCCCCNC1=CC(=O)CC(c2ccccc2)C1 (stereo not given)
    i	108	0.85	-8	104	26	-0.3
> CC(=O)c1ccc(N2CCN(CC(=O)Nc3cc(C)on3)CC2)cc1
    i	117	0.96	-10	99	-33	nt
> O=C(O)c1sccc1Oc1ccc(F)cc1[N+](=O)[O-]
    nt	170	nt	-2	103	21	-2.7
> COc1ccc(-n2ncc3c(NCc4ccc5c(c4)OCO5)ncnc32)cc1
    i	90*	0.74	-1	97	75*	-0.6
> Cc1cc(=O)n2cc(-c3ccccc3)nc2[nH]1
    i	87	0.97	-6	101	-8	-1.4
> O=C1CN(c2ccc(Br)cc2)C(=O)N1CC(=O)N1CCCc2ccccc21
    i	71	0.84	3	100	-179	-2.9
> CC1Cc2cc(/C(O)=C3/C(=O)C(=O)N(CCN4CCOCC4)C3c3cccc(Cl)c3)ccc2O1 (stereo not given)
    i	nt	1	-4	100	nt	-0.9
> CCN(CC)S(=O)(=O)c1cccc(NC2=NCC(C)S2)c1 (stereo not given)
    i	nt	0.93	-2	98	nt	nt
> O=C(C(c1ccccc1)c1ccccc1)N1CCCc2ccccc21
    i	101	0.69	-6	101	7	-3.0
> CN(C)CCCNC1=CC(=O)CC(c2ccccc2)C1 (stereo not given)
    i	24*	0.92	1	145	83*	nt

# (next part)
# Order of values: HSV replic up	Insulin prom inh cell count	HSV replic up primary fold	PKD1 inh	RGS16-Gao	Insulin prom inh	GALR2 agonist
> O=C(CN(CC1CCCO1)S(=O)(=O)c1ccc(S(=O)(=O)NC2CC2)cc1)Nc1ccccc1 (stereo not given)
    i	74	0.91	0	51	-45	-1.9
> C=CCn1c(=O)c2c(nc(Br)n2Cc2ccccc2Cl)n(C)c1=O
    i	84	0.9	-6	96	-33	-0.5
> Cc1cc(C)c(OCC(=O)N(Cc2ccc(N(C)C)cc2)C2CCS(=O)(=O)C2)c(C)c1 (stereo not given)
    i	nt	1.1	nt	99	nt	nt
> Cc1ccc(C(=O)NC(=S)Nc2ccc(S(=O)(=O)N3CCN(C)CC3)cc2)cc1
    nt	nt	nt	1	123	nt	-2.5
> CN(C(=O)CSc1nnc(-c2ccccc2)c(-c2ccccc2)n1)C1CCS(=O)(=O)C1 (stereo not given)
    i	96	1	-2	96	-19	-0.8
> CCOC(=O)C(CCCOc1ccc(C(C)CC)cc1)C(=O)OCC (stereo not given)
    i	46	1	-2	113	0	-1.8
> O=c1nc(N2CCOCC2)ccn1-c1nc(-c2ccccc2)sc1-c1ccccc1
    i	nt	0.85	nt	102	nt	nt
